Compound activity as filed in PubChem BioAssay.
VDR inh: Inhibitors of the vitamin D receptor (VDR): qHTS. Vitamin D3 receptor (Homo sapiens), P11473. VDR-SRC2-3 peptide fluorescence polarization, 2 h. Potency, µM, for the others: max response, negative = inhibition, most hits filed as inhibitors. actives 0.93% (n = 400,000); active = well fitted inhibition curve with a large enough effect; inconclusive = small, poorly fitted or top-dose-only effect, or another doubt; inactive = no such curve, though single readings can be large or run the other way; also: series mostly up to about 120 µM
Target sequence (P11473 whole entry, looked up): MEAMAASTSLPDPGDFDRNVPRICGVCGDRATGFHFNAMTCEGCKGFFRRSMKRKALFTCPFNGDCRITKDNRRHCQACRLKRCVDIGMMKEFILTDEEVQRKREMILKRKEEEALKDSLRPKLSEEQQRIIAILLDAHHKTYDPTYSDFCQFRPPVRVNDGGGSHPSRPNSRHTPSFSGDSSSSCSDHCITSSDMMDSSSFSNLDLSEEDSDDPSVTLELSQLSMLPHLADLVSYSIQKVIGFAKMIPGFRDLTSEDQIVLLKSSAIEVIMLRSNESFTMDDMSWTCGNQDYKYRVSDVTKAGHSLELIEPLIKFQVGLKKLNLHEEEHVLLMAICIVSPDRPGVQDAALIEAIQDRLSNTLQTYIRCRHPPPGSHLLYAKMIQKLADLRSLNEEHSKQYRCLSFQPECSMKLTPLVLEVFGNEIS
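After 23 nl compound addition and a short centrifugation, plates sat for 2 hours at ambient temperature; polarization of fluorescence then indicated loss of VDR binding to peptide SRC2-3.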
* hit, by the source's call; ? = inconclusive; & = joins results of further samples. % is scaled to controls: 0 for no effect and ±100 for the full control effect; potency is read from the fitted curve at half-maximal effect. Not all compounds are listed, so the mix of outcomes need not match the whole.

Start of the data: the first 2 records, to show the layout:
SMILES	VDR inh
Cc1cc(/C=C(/C#N)c2nc3ccccc3[nH]2)c(C)n1-c1cc(C(=O)O)cc(C(=O)O)c1	-11.1%
CCCCC(=O)NC1(C(F)(F)F)C(=O)Nc2c1c(=O)[nH]c(=O)n2Cc1ccco1 (stereo not given)	7.8%

Main list (from the top)
SMILES	VDR inh
Cc1cc(/C=C(/C#N)c2nc3ccccc3[nH]2)c(C)n1-c1cc(C(=O)O)cc(C(=O)O)c1	-11.1%
CCCCC(=O)NC1(C(F)(F)F)C(=O)Nc2c1c(=O)[nH]c(=O)n2Cc1ccco1 (stereo not given)	7.8%
COCCN(C(=O)c1ccc(C)c(S(=O)(=O)N2CCOCC2)c1)c1c(N)n(CC(C)C)c(=O)[nH]c1=O	-3.2%
CCC(C(=O)Nc1cc(OC)c(NC(=O)c2ccccc2)cc1OC)c1ccccc1 (stereo not given)	-14.6%
CCC(CC)c1nnc(NC(=O)C2CCN(C(=O)c3ccco3)CC2)s1	89.1µM*
CC(=O)Nc1ccc(C(=O)NNC(=O)CCCCC(=O)NNC(=O)c2ccc(NC(C)=O)cc2)cc1	-6.2%
C=CCn1c(CCNC(=O)c2cccs2)nnc1SCC(=O)c1ccc(Cl)cc1	?
CC1CN(C(=O)CSc2nc(-c3ccccc3)cs2)CC(C)O1 (stereo not given)	4.3%
COc1cccc(N=Nc2c(N)[nH]n3c(=O)cc(-c4ccccc4)nc23)c1	7.0%
OC(COc1ccc2ccccc2c1Cl)CN1CCOCC1 (stereo not given)	-11.8%
O=C(Cn1c2ccccc2c(=O)c2ccccc21)Nc1cccc(F)c1	?
O=C(N/N=C/c1cccc(Oc2ccccc2)c1)c1cccc(O)c1	-8.2%
CC(=O)N1CCN(c2cc3c(cc2F)c(=O)c(C(=O)O)cn3C2CC2)CC1	11.0%
CCCCn1c(NC(=O)c2ccccc2)c(C#N)c2nc3ccccc3nc21	?
C=C(C)CNC(=S)N/N=C/c1ccccc1OCC(=O)O	-16.5%
CC(C)CN1C(=O)c2ccc(NC(=O)c3ccco3)cc2C1=O	-3.5%
Cc1c([N+](=O)[O-])c(C(=O)Nc2ccc3c(c2)OCCO3)nn1C	10.5%
CCNC(=O)N1CCCC(C(=O)c2ccc(OC)c(OC)c2)C1 (stereo not given)	7.4%
CC1CN(Cc2c(O)ccc3c2oc(=O)c2ccccc23)CC(C)O1 (stereo not given)	-13.0%
Cc1cccc(Cn2c(=O)n(CCc3ccccc3)c(=O)c3sc4ccccc4c32)c1	-1.0%
Cc1cc(C)c(NC(=S)N(Cc2cccnc2)Cc2ccco2)c(C)c1	3.6%
O=C(CSc1nnc(-c2ccccc2Br)o1)Nc1nncs1	-22.9%
Nc1ccc(C2(c3ccc(N)cc3)C(=O)Nc3ccccc32)cc1	10.8%
O=S(=O)(Nc1cccnc1)c1ccc(C2CCCCC2)cc1	-21.9%
C=C(C)C(=O)Nc1cccc(C2=NOC3(C2)C[C@@H](C(N)=O)N(C(=O)[C@H]2CCC(=O)N2)C3)c1 (stereo not given in full)	-0.4%
CCc1ccccc1Nc1nn2c(=O)c3ccc(C(=O)NC(C)C)cc3nc2s1	0.6%
COc1ccc(-c2csc(NC(=O)CSc3n[nH]c(N)n3)n2)cc1	-16.5%
O=c1c2c([nH]c3ccccc13)CCCCC2	-8.4%
c1ccc(C2CC(c3cccs3)=NN2c2ccccc2)cc1 (stereo not given)	9.2%
COc1ccc(CCNC(=O)CCc2c(C)nc3c(c(C)nn3-c3ccc(C)c(C)c3)c2C)cc1OC	-7.7%
CCCCN1C(=O)c2ccc(C(=O)Nc3ccccc3N3CCOCC3)cc2C1=O	-17.2%
CC(C)(C)N(Cc1ccccc1)C(=O)CSc1nnc(CNc2ccc(F)cc2)o1	12.9%
COC(=O)c1sc(NC(=O)Cc2cccs2)nc1C	6.5%
COc1cc(S(=O)(=O)Nc2ccc(Br)cc2)ccc1N	-12.5%
COc1ccc(C2=NN(C(=O)CN3CCCCC3)C(c3ccc(C)cc3)C2)cc1 (stereo not given)	2.3%
C=CCNc1nc(Cl)ncc1F	-9.2%
COC(=O)c1sccc1NC(=O)CSc1ccccc1N	-24.3%
CCOC(=O)N1CCC2(CC1)C(C#N)=C(N)OC1=C2C(=O)CC(C)C1 (stereo not given)	13.4%
CCOP(=O)(OCC)C(NC(=O)Nc1ccccc1)C(N)=O (stereo not given)	-4.9%
CCOc1ccc(C(=O)NCC(=O)OCc2c(C)noc2C)cc1OCC	4.5%
O=C(Cc1cccc(F)c1)N1CCCC(CO)(Cc2ccc(F)cc2F)C1 (stereo not given)	-11.4%
O=C1N[C@@H](Cc2ccccc2)C(=O)N2CCC[C@@H]12	-7.0%
Cc1ccc(Cn2cc(CCC(=O)NCc3ccccc3F)c3ccccc32)cc1	6.5%
Cc1ccc(SCC(=O)n2nc(C)cc2C)cc1	0.5%
Cc1cc(C)cc(NS(=O)(=O)c2ccc(N3CCCCS3(=O)=O)cc2)c1	-2.6%
COc1cc2c(cc1OC)C(c1ccccc1)=NCC2	1.4%&-4.3%
O=C(COc1ccccc1C(=O)Nc1ccccc1)c1ccc(F)cc1	-26.2%
Nc1ncncc1-c1ccccc1Cl	11.6%
O=C(NCCc1csc(-c2cccnc2)n1)c1cccc2ccccc12	-2.0%
COc1ccc(NC(=O)COc2ccc(N(C)S(=O)(=O)c3ccc(Cl)cc3)cc2)cc1OC	-16.9%
O=C(CSc1oc(-c2ccc(F)cc2)nc1S(=O)(=O)c1ccccc1)NCC1CCCO1 (stereo not given)	2.6%
O=C(NCCC1=CCCCC1)c1ccc2c(c1)sc1nc(-c3ccc(F)cc3)cn12	7.6%
C=CCOc1ccc(C2=NOC(C(=O)Nc3ccc4c(c3)OCCO4)C2)cc1OC (stereo not given)	0.3%
O=C1[C@@H]2CSCN2C(=O)CN1Cc1cccc(C(F)(F)F)c1	-0.9%
COC(=O)c1sc(NC(=O)c2ccco2)nc1C	-3.0%
O=c1c2ccccc2n2cnnc2n1-c1ccccc1	4.3%
CCNc1nc(C#N)nc2c1ncn2-c1cc(F)cc(F)c1	13.9%
CCOC(=O)c1ccc(CNC(=O)C2CCCCC2C(=O)OCC(F)(F)F)o1 (stereo not given)	-12.1%
COc1cccc(NC(=S)/C(=C(\[O-])c2ccc(C)c([N+](=O)[O-])c2)[n+]2ccccc2)c1	8.3%
O=C(O)c1ccccc1-c1ccccc1C(=O)Nc1cccc(Br)c1	-8.6%
Further entries:
SMILES	VDR inh
O=C1CCN1C1(C(=O)NC2CCCCC2)CCCC1	0.9%
NNC(=O)Cn1nc(-c2ccccc2)c2ccccc2c1=O	2.4%
Cc1ccccc1-c1cccc([C@@H]2C[C@H]3C(CN2)CON3C)c1 (stereo not given in full)	-19.9%
O=C(C[n+]1cccc(CO)c1)Nc1nc2ccccc2s1	-20.4%
Cc1occc1C(=O)Nc1c(F)cc(F)cc1Br	6.4%
NC(=NCCc1c[nH]c2ccccc12)NS(=O)(=O)c1ccc(F)cc1	-11.5%
CCCCN(CC)C(=O)c1cc2c(=O)[nH]c3ccc(C)cc3c2s1	2.6%
COc1ccc(-n2c(CCc3ccccc3)nnc2SCC(=O)c2ccc(Cl)cc2)cc1	4.9%
COc1ccc(CCC(=O)N(C)CC(=O)Nc2ccc(Cl)c(C(F)(F)F)c2)cc1	1.3%
COc1ccc([N+](=O)[O-])cc1NCC(=O)Nc1cccc(S(=O)(=O)N2CCCC2)c1	-6.9%
Cc1c(OC(C)C(=O)NCCCN2CCCC2=O)ccc2c3c(c(=O)oc12)CCCC3 (stereo not given)	-6.4%
O=C(NNC(=O)c1cc(-c2ccncc2)nc2ccccc12)c1cccc(Cl)c1	-7.0%
CCCCC/C=C\C/C=C\C/C=C\CCCCC(=O)NC(C)C(=O)O (stereo not given)	-13.5%
Cc1n[nH]c(C)c1CCNCc1ccc(OCC(O)CN2CCCCC2)cc1 (stereo not given)	0.0%
CCOC(=O)c1ccc(COc2ccc(C(C)C)cc2)o1	-3.5%

Another view of some results above:
mol | VDR inh
O=C(Cn1c2ccccc2c(=O)c2ccccc21)Nc1cccc(F)c1 | ?
O=C(N/N=C/c1cccc(Oc2ccccc2)c1)c1cccc(O)c1 | -8.2%

(list continues)
SMILES	VDR inh
COc1ccc2c(c1)-c1nc(NC(=O)c3ccc(Cl)cc3)sc1CC2	-9.4%
COc1cc(NCCCCCCN)c2ncccc2c1OC	-16.0%
CC(=O)c1cccc(Nc2nn(-c3ccc(OC(F)(F)F)cc3)nc2C(C)=O)c1	-1.5%
O=C(COc1ncnc2ccccc12)Nc1cccc(S(=O)(=O)N2CCOCC2)c1	-14.9%
COc1ccc(NC(=O)CN(C)C(=O)COc2ccccc2Cc2ccccc2)cc1	23.6%
Fc1ccc2c(c1)[C@H]1OCC[C@H]1[C@@H](c1ccco1)N2	12.1%
Cc1cccc(C)c1OCc1cc(C(=O)NC2CCC2)no1	-2.7%
COC(=O)c1cc2sccc2n1Cc1nc(-c2ccc(OC)cc2)oc1C	-3.1%
Cc1cc(C)c(NC(=O)CSc2ccc(-c3ccccn3)nn2)c(C)c1	-10.8%&6.9%
CCc1nc(C)cc(N)c1OCc1ccccc1	-14.0%
COCC1CCCN(C(=O)c2cc(COc3cccc4cccnc34)on2)C1 (stereo not given)	-5.0%
COc1cc(C(=O)Nc2ccc(S(=O)(=O)NC(C)C)cc2)cc(OC)c1OC	-7.6%
COc1ccc(S(=O)(=O)N2CCOCC2)cc1NC(=O)c1ccc(=O)[nH]c1	0.5%
O=C(Nc1nc(-c2cccnc2)cs1)c1ccc(S(=O)(=O)N2CCOCC2)cc1	5.2%
CNC(=O)CN1C(=O)c2ccccc2S1(=O)=O	-5.3%
CCN(CC)CCN(C(=O)c1ccc(S(=O)(=O)N(C)C2CCCCC2)cc1)c1nc2c(C)cccc2s1	-3.8%
Cc1noc(C)c1CCC(=O)N1CCCC(CCC(=O)NCc2ccc(F)c(F)c2)C1 (stereo not given)	-6.4%
O=C(NCC1(c2ccccc2)CCCC1)C(=O)Nc1cccc(C(F)(F)F)c1	18.0%
Cc1ccc(Sc2c(C)nn(C(=O)c3ccc(Br)cc3)c2C)cc1	15.5%
CCN(CC)S(=O)(=O)c1ccc(N2CCOCC2)c(NC(=O)c2[nH]c(C)c(C(C)=O)c2C)c1	-8.8%
Cn1c(SCC(=O)Nc2ccc(Cl)cc2)nc(O)cc1=O	7.9%
O=C(C1=C[C@@H](c2ccc(Br)cc2)C[C@@H](OCCCCO)O1)N1CCN(Cc2ccccc2)CC1	-20.0%
COc1ccccc1-c1nnc(SCCN2CCOCC2)n1-c1ccc(C)cc1	3.7%
O=C(OCc1cc(=O)n2nc(-c3cccs3)sc2n1)c1cccc(Cl)c1	5.7%
CSc1nc2sc3c(c2c2nnnn12)CCCC3	1.4%
COc1cc(/C=N/NC(=O)CCn2nnc3ccccc32)ccc1O	-3.5%
O=C(CNS(=O)(=O)/C=C/c1ccccc1)OC1CCOC1=O (stereo not given)	-9.3%
CN1CCN(c2oc(-c3ccccc3)nc2S(=O)(=O)c2ccc(Br)cc2)CC1	-4.9%
CCOC(=O)NC(=O)CN1C(=O)NC2(CCc3ccccc32)C1=O (stereo not given)	-2.5%
CCOc1ccc(S(=O)(=O)N(CC)CC(=O)N2CCCC2)cc1	-0.2%
CN(C)C(=O)CSc1nnc(CCNC(=O)OC(C)(C)C)o1	-14.0%
CCOC(=O)N1CCN(C(=O)C2CCN(S(=O)(=O)c3ccc(OC)cc3)CC2)CC1	-12.9%
Fc1ccc2c(c1)C1C=CCC1C(c1cc3c(cc1Br)OCO3)N2 (stereo not given)	-11.5%
CCN1CCN(c2cc(C)c3cc(NC(=O)Cc4ccccc4OC)ccc3n2)CC1	-2.0%
Nn1cc(-c2ccccc2)nc1SCC(=O)NCCc1ccccc1	1.7%
CC1CC(C)CN(C(=O)c2ccc(NC(=O)c3ccc(=O)[nH]c3)cc2)C1 (stereo not given)	-11.9%
Cc1csc(SCC(=O)NC(C)c2ccc(F)cc2)n1 (stereo not given)	-6.1%
COc1ccc(NC(=O)c2oc3cc(C)c(C)cc3c2C)c(OC)c1	3.2%
CC(CCc1ccccc1)NC(=O)CSc1ccccc1 (stereo not given)	-22.7%
Cc1cc(C)cc(C(=O)Nc2c(C(=O)Nc3ccccc3F)oc3ccccc23)c1	7.0%
CC(C)CCn1nnnc1C(c1ccc(F)cc1)N1CCN(C(=O)c2ccco2)CC1 (stereo not given)	-19.2%
CCN(CC)C(=O)C1=C(C)Nc2nc3ccccc3n2C1c1ccc(Br)cc1 (stereo not given)	-5.0%
Cc1cc(C)cc(Nc2ncnc3sc4c(c23)CCCC4)c1	6.3%
CCN(C(=O)c1ccc(S(=O)(=O)N(C)C)cc1)C(C)C(=O)Nc1ccc(C)cc1 (stereo not given)	3.6%
Cc1noc(C)c1COC(=O)c1cccnc1SCC(=O)Nc1ccc2c(c1)OCO2	-1.1%

5 entries from above in a different format.
molecule | VDR inh
O=C1[C@@H]2CSCN2C(=O)CN1Cc1cccc(C(F)(F)F)c1 | -0.9%
COC(=O)c1sc(NC(=O)c2ccco2)nc1C | -3.0%
O=c1c2ccccc2n2cnnc2n1-c1ccccc1 | 4.3%
CCNc1nc(C#N)nc2c1ncn2-c1cc(F)cc(F)c1 | 13.9%
CCOC(=O)c1ccc(CNC(=O)C2CCCCC2C(=O)OCC(F)(F)F)o1 (stereo not given) | -12.1%

The list continues:
SMILES	VDR inh
O=C(O)C(F)(F)S(=O)(=O)O	1.9%
Cc1cccc(NC(=O)C2CCN(S(=O)(=O)c3cccc4nsnc34)CC2)c1	-1.1%&-7.5%
C=CCn1c(C(C)(C)C)nc2ccccc21	1.6%
Cn1c(=O)c2c(nc(Sc3ccccc3N)n2C)n(C)c1=O	1.0%
CCOC(=O)c1sc(=NC(=O)c2ccccc2)n(C)c1C	1.2%
CC1=NN(C2=NS(=O)(=O)c3ccccc32)C(C)(O)C1 (stereo not given)	-11.2%
O=C(CCNC(=O)C1CCN(S(=O)(=O)c2ccccc2)CC1)NCc1ccccn1	-6.4%
CS(=O)(=O)c1ccc(C(=O)OCC(=O)Nc2cccnc2Cl)cc1[N+](=O)[O-]	-7.7%
O=C(CNc1cccc(C(F)(F)F)c1)N/N=C/c1cccc(Br)c1	12.5%
